E coli growth: E. coli growth inhibition, primary screen, OD600; Escherichia coli growth, 23 h; hits give low values; OD600 absorbance (no concentration beside the values); actives 0.21% (n = 330,000);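 active = OD600 absorbance below the run mean of sample wells minus 3.6 SD, in any replicate, cut at about 0.56 in these data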;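 note: stock transfer was 300 nL into about 60 µL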
HNF4A DNA FP: change in binding of human HNF4A to DNA, primary screen, biochemical, fluorescence polarization, FITC-DNA; AID 1224865, 2016; Hepatocyte nuclear factor 4-alpha (Homo sapiens), P41235; activity change, % at 10 µM; actives 0.3% (n = 360,000); 1 h; in the data active = activity change above about 30%, passing the limit was not always enough;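 note: controls were the assay level and a saturating level of protein; the project sought stronger binding though the title names inhibitors; some compounds called inactive have numbers as strong as hits; positive values seem to mean higher polarization but the record does not say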
Target sequence (P41235 whole entry, looked up): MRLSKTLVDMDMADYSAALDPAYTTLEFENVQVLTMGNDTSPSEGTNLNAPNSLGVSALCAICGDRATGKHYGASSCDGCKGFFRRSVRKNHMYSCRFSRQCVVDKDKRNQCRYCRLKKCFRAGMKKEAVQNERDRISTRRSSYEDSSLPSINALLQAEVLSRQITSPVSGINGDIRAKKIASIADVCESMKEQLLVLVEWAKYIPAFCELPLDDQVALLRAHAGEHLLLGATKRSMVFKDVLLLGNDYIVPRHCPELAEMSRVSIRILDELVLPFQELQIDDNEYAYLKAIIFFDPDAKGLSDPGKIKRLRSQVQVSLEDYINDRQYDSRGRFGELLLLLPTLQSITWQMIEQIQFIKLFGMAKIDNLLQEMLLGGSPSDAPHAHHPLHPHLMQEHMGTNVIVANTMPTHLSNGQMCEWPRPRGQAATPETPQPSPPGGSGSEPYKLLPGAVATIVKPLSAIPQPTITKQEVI
AF4-AF9 inh: inhibitors of AF4 peptide binding to AF9, primary screen, biochemical, AlphaScreen, biotin-AF4 peptide, FLAG-AF9, single point; Protein AF-9 (Homo sapiens), P42568; inhibition, % at 10 µM; actives 0.47% (n = 350,000);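 active = every replicate reaching a set inhibition limit, whatever the replicate mean, cut at about 25% in these data; inconclusive = mean inhibition reaches that limit but some replicates miss it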;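 note: 0% = plate neutral control median and 100% = total signal loss; the record names both 10 and 1 µM as test concentration; the first replicate is given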
FGF22 binding: binders of human FGF22 protein, primary screen, FGF22 synaptogenesis inhibitor project, biophysical, thermal shift, single point | recombinant FGF22 thermal shift, SYPRO orange fluorescence; percent of sucrose octasulfate shift, DMSO zero | calls only at 9.99 µM | actives 1.5% (n = 340,000);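 active = melting point raised past a set limit in the mean and every replicate; inconclusive = no clear call; three in four hits are not shown here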
Target sequence (Q9HCT0 whole entry, looked up): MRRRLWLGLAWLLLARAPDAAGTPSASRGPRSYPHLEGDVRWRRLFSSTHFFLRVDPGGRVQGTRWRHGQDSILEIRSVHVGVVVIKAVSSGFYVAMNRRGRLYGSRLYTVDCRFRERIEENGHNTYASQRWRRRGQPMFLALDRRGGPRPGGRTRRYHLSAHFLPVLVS
ALR inh: inhibitors of human ALR sulfhydryl oxidase, primary screen, biochemical, H2O2 detection, HRP-luminol luminescence, single point; inhibition, % (concentration not given with the values); AID 485317, 2010; purified ALR, DTT oxidation; actives 3.8% (n = 290,000); FAD-linked sulfhydryl oxidase ALR (Homo sapiens), P55789;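 active = mean and each replicate at 75% or more; inconclusive = only one of the two met; inactive = neither met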;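 note: stock transfer was 7.5 nL into about 7.5 µL; 0% = neutral wells and 100% = wells with inactivated enzyme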
Target sequence (P55789 whole entry, looked up): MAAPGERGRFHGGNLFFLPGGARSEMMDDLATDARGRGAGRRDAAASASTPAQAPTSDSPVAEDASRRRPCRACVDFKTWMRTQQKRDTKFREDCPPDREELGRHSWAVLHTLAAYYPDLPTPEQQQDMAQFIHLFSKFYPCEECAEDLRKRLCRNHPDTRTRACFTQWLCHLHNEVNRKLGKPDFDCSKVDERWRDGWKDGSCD
rRNA inh HTS: reduced GFP signal of wild-type E. coli, primary screen, bacterial rRNA inhibitor project, GFP/RFP fluorescence, OD600, single point | actives 1.6% (n = 350,000) | E. coli WT GFP vs humanized-ribosome RFP mutants, 24 h; hits give low values; DMSO median 0, no signal -100 | GFP signal change (wild-type ribosome), % (no concentration beside the values);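 active = significant combined selectivity score with lowered wild-type GFP, culture density cut under 30%, mutant RFP and density less affected; inactive = any of these conditions unmet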; note: one replicate is shown; some compounds called inactive have numbers as strong as hits
Vif A3G: inhibitors of Vif binding to APOBEC3G peptide, primary screen, biochemical, TR-FRET, GST-Vif 1-94, biotin-A3G peptide, dose response retest (AID 1117319) | TR-FRET GST-Vif / biotin-A3G peptide binding; higher % means a stronger effect; test concentration not given here; strong numbers were not always called active | inhibition, %; hits with a dose series show IC50 in µM | actives 0.57% (n = 260,000);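 active = above the screen mean plus three standard deviations and confirmed in dose response; inconclusive = results disagree or hit not tested in dose response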;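 note: Vif residues 1-94 fused to GST binding biotinylated APOBEC3G peptide 110-148; 0% = full assay without inhibitor and 100% = GST in place of GST-Vif; retest series ran down from 100 µM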
rRNA inh HTS OD600: also measured in rRNA inh HTS; calls as there; OD600 change, %; measured here: OD600 growth;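 optical density of the mix in the first replicate; 0 = DMSO median and -100 = no signal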
rRNA inh HTS RFP: further read-out of rRNA inh HTS, marked with its call; RFP signal change, %; measured here: RFP humanized mutant strains;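 first replicate; 0 = DMSO median and -100 = no signal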
Active calls of the source: *; i = inactive; ? = inconclusive; nt = not tested or not shown; & = joins results of further samples. This is a subset. The share of hits here may be higher or lower than overall.

SMILES | E coli growth | HNF4A DNA FP | AF4-AF9 inh | FGF22 binding | ALR inh | rRNA inh HTS | rRNA inh HTS OD600 | rRNA inh HTS RFP | Vif A3G
Cc1cc(C)cc(NC(=O)C(C)N2C(=O)c3ccccc3C2=O)c1 (stereo not drawn) | 0.67 | 5.1 | -1.9 | i | 10 | 8 | -6 | 1.5 | nt
COc1ccc(Cn2c(=O)[nH]c3cc(C(=O)NCCCOC(C)C)ccc3c2=O)cc1 | 0.68 | 4.7 | 3.9 | i | -3 | 10 | 0 | 2.3 | 7%
c1ccc2c(c1)ncn2CCN1CCCCC1 | 0.75 | -4.3 | nt | nt | 1 | nt | nt | nt | -3%
Cc1nc(NC(=O)c2cccnc2)ccc1Br | 0.64 | -1.5 | nt | nt | 0 | nt | nt | nt | 3%
CCc1nc2ccc(C(=O)NCc3ccc(OC)cc3)cn2c1N(CC)CCN(C)C | nt | 1.5 | -0.1 | i | nt | 15 | 10 | 3.6 | nt
CC(C)(C)NC(=O)CN(Cc1ccccc1)S(=O)(=O)c1ccccc1 | 0.63 | 3.7 | -2.0 | i | -3 | -6 | -6 | 0.1 | 6%
Cc1c(C(=O)NCCSCc2cccc(C(F)(F)F)c2)cnn1-c1ccc(Cl)cc1 | 0.7 | -0.2 | -1.7 | i | 5 | nt | nt | nt | ?
CCc1nnc(NC(=O)C2CC(=O)N(C3CCCC3)C2)s1 (stereo not drawn) | 0.68 | -1.9 | 0.1 | i | -1 | -5 | 6 | 3.9 | -5%
CCSc1sccc1C1C(C#N)=C(N)N(c2cccnc2)C2=C1C(=O)CCC2 (stereo not drawn) | 0.67 | -6.9 | nt | nt | -4 | nt | nt | nt | 6%
S=C(NCCCN1CCOCC1)NCCCN1CCOCC1 | 0.72 | -1.7 | -2.4 | i | -6 | 22 | 23 | -8.3 | nt
CC(C)CC(=O)NC1(C(F)(F)F)C(=O)Nc2c1c(=O)n(C)c(=O)n2C (stereo not drawn) | 0.71 | 1.4 | nt | nt | 0 | nt | nt | nt | -1%
Cc1ccc(S(=O)(=O)N2CCC(C(=O)N[C@H](C(=O)N3CCN(C)CC3)C(C)C)CC2)cc1 | 0.72 | -0.1 | nt | nt | -5 | nt | nt | nt | ?
Cc1onc(-c2ccccc2Cl)c1C(=O)OCC(=O)Nc1ccc2c(c1)OCO2 | 0.64 | -1.5 | nt | nt | -14 | nt | nt | nt | 3%
CC(/C=C/c1ccc(N(C)C)cc1)=N\N=C(/N)SC1CC(=O)N(c2ccc(C(=O)O)cc2)C1=O (stereo not drawn) | nt | 40* | nt | nt | 100* | nt | nt | nt | ?
C[C@@H]1CN([C@H](C)CO)S(=O)(=O)c2ccc(C#C[C@@H](C)O)cc2O[C@@H]1CN(C)Cc1cncnc1 | nt | nt | 0.2 | i | nt | 5 | 3 | -2.8 | nt
CN(C)CC(=O)Nc1ccc2c(c1)[C@@H]1C[C@@H](CC(=O)NCc3ccc(-c4ccccc4)cc3)O[C@H](CO)[C@@H]1O2 | nt | nt | 6.8 | i | nt | -1 | -8 | -1.1 | nt
COc1cccc(C(=O)NOCc2ccccc2)c1OC | 0.7 | -1.2 | -0.4 | i | -5 | 3 | 5 | -1.1 | nt
Cc1c(CN(C)C)c2c(n1Cc1ccccc1)C(=O)c1ccccc1-2 | 0.73 | 5.3 | nt | nt | 2 | nt | nt | nt | -3%
CCCc1nc(NCc2ccncc2)c2nnn(Cc3ccccc3F)c2n1 | 0.76 | -2.1 | nt | nt | 2 | nt | nt | nt | 10%
COC(=O)/C=C/c1sc2nc(C)cc(C)c2c1N=CN(C)C | 0.67 | -1.7 | 5.3 | i | nt | 4 | 7 | 1.5 | 2%
N#Cc1cc([N+](=O)[O-])cnc1N(CCO)CCO | 0.7 | 0.9 | nt | nt | nt | nt | nt | nt | 6%
CC1=CC(C)(C)Nc2ccc(OC(=O)C(C)N3C(=O)c4ccccc4C3=O)cc21 (stereo not drawn) | 0.73 | 0.4 | nt | nt | 7 | nt | nt | nt | 3%
C[C@@H]1CCCCO[C@H](CN(C)C(=O)Nc2cccc3ccccc23)[C@H](C)CN([C@@H](C)CO)C(=O)c2cc(NS(=O)(=O)c3ccc(Cl)cc3)ccc2O1 | nt | nt | -3.6 | i | nt | 7 | 14 | 5.1 | nt
C[C@@H]1CN([C@H](C)CO)C(=O)c2cc(NC(=O)Nc3ccc4c(c3)OCO4)ccc2O[C@@H](C)CCCCO[C@@H]1CN(C)S(=O)(=O)c1ccc(Cl)cc1 | nt | nt | 0.1 | i | nt | 3 | 6 | -1.5 | nt
CNC(=O)c1c(NC(=O)c2ccco2)sc2c1CCCC2 | 0.68 | 5.0 | -1.9 | i | 45 | -15 | -22 | -1.7 | -7%

Going on with the list:
SMILES | E coli growth | HNF4A DNA FP | AF4-AF9 inh | FGF22 binding | ALR inh | rRNA inh HTS | rRNA inh HTS OD600 | rRNA inh HTS RFP | Vif A3G
COc1ccc(CCC(=O)N2CCCc3ccccc32)cc1 | 0.69 | 1.6 | -10 | i | -1 | -8 | -7 | 3.2 | nt
COc1ccccc1-c1ccc([C@H]2[C@@H](CO)N3CCCCN(C(=O)c4ccncc4)C[C@H]23)cc1 | nt | nt | -2.6 | i | nt | 1 | -1 | -0.6 | nt
COCCNc1nc(-c2ccccc2F)c2sc(-c3ccccc3)cc2n1 | nt | -0.5 | -6.5 | i | nt | -14 | -14 | 2.1 | nt
Cc1ccc(/C=N/NC(=O)c2cccnc2)s1 | nt | -1.8 | nt | i | -14 | 18 | 11 | -2.2 | 8%
O=C(NCC[C@@H]1CC[C@@H](NC(=O)c2ccc3c(c2)OCO3)[C@H](CO)O1)Nc1ccc(Cl)cc1 | nt | nt | 10 | i | nt | -12 | -12 | 1.5 | nt
Cc1ccc(C)c(OCCn2c(=O)c3c(ncn3C3CCCC3)n(Cc3ccccc3)c2=O)c1 | 0.71 | -1.0 | 1.2 | i | 1 | 2 | 9 | 5.2 | nt
CCC(=O)Nc1cccc(-c2ccc(N3CCN(C)CC3)nn2)c1 | 0.75 | 3.4 | nt | nt | 6 | nt | nt | nt | -1%
Cc1ccccc1OCCC(=O)N(Cc1ccccc1)c1c(N)n(Cc2ccccc2)c(=O)[nH]c1=O | 0.66 | -5.2 | -2.1 | i | 2 | 1 | -13 | 3.2 | nt
COc1ccc(Cc2nc3c4c(ncn3n2)Oc2c(ccc3ccccc23)C4c2ccc(OC)c(OC)c2)cc1 (stereo not drawn) | 0.72 | 3.2 | 3.8 | i | -1 | 0 | 1 | 2.8 | nt
CCCCCCCn1c2c(c(=N)c3c1CCC3)CCCC2 | 0.62 | 5.1 | 1.8 | i | nt | -50 | -82 | -10 | nt
COc1ccc(N(C(=O)CCl)C(C)(C(=O)Nc2c(C)cccc2C)c2ccccn2)cc1 (stereo not drawn) | 0.71 | 0.7 | nt | nt | 11 | nt | nt | nt | 6%
Cc1noc(C)c1S(=O)(=O)N1CCN(C(c2ccccc2)c2ccc(Cl)cc2)CC1 (stereo not drawn) | 0.77 | -1.9 | -1.8 | i | -6 | 7 | 8 | -1.4 | 1%&-5%
O=C1Cc2cc(S(=O)(=O)N3CCN(c4ccc(O)cc4)CC3)ccc2N1 | nt | -0.6 | 4.2 | i | nt | 0 | 13 | -0.7 | nt
CO[C@H]1CN(C)C(=O)c2cc(NC(=O)C3CC3)ccc2OC[C@H](C)N(Cc2cccnc2)C[C@H]1C | nt | nt | -0.3 | i | nt | 0 | 6 | 0.1 | nt
COc1cccc(C(=O)Nc2cc(=O)n(C)c(=O)n2C)c1 | 0.7 | -1.8 | -3.0 | i | -6 | 11 | 12 | -0.4 | nt
COc1cccc(S(=O)(=O)N[C@H]2C=C[C@H](CC(=O)NCc3ccncc3)O[C@@H]2CO)c1 | nt | nt | -1.1 | i | nt | 2 | 5 | 0.4 | nt
COc1ccc(-c2cc(=O)oc3c(C)c(O)c(CN(C)C)cc23)cc1 | 0.71 | -0.6 | -6.1 | nt | 6 | nt | nt | nt | 2%
Nc1nc(COC(=O)c2ccc3c(c2)OCCO3)nc(Nc2ccccc2)n1 | 0.69 | -0.9 | 3.2 | i | -3 | 4 | -21 | -2.3 | 10%
CCN(Cc1ccccc1)C(=O)Cn1c(=O)n(-c2ccc(OC)cc2OC)c(=O)c2c(C)c(C)sc21 | 0.69 | -1.4 | 4.4 | i | nt | 4 | -3 | -2.0 | -2%
CCC(C)[C@H](NC(=O)NCc1cccs1)C(=O)OC (stereo partly drawn) | 0.68 | 2.9 | 7.7 | i | -22 | 14 | 2 | 1.9 | -4%
O=C(CSc1ccc(C(F)(F)F)cn1)Nc1ccccc1 | 0.63 | 1.9 | -2.8 | i | -6 | 5 | -7 | 2.0 | ?
CCC(=O)Nc1cc2c(cc1C(=O)c1ccccc1)OCCO2 | 0.75 | 1.9 | nt | nt | -21 | nt | nt | nt | 2%
CC1(C(=O)Nc2cccnc2)Cc2c(-c3ccccc3)ccnc2O1 (stereo not drawn) | nt | 2.5 | 0.0 | i | nt | 0 | -2 | 2.5 | nt
Cc1cc(C(=O)O)ccc1-c1ccc(/C=C2\SC(=O)N(CC(=O)Nc3ccc4c(c3)OCO4)C2=O)o1 | nt | 36* | -1.3 | i | -16 | 9 | 4 | 2.7 | nt
CCCCNC(=O)c1cc2c(=O)n(CC)c3ccccc3c2s1 | 0.68 | 0.1 | -1.5 | i | nt | 4 | -1 | -3.3 | -31%

Next records.
SMILES | E coli growth | HNF4A DNA FP | AF4-AF9 inh | FGF22 binding | ALR inh | rRNA inh HTS | rRNA inh HTS OD600 | rRNA inh HTS RFP | Vif A3G
COc1ccc(N2CCN(C(=S)NCc3ccc(C)cc3)CC2)cc1 | 0.71 | 5.7 | -0.1 | i | nt | 1 | 11 | 0.6 | -5%
CCOC(=O)N1CCN(Cc2nc3cc(NC(=O)c4ccco4)ccc3n2C)CC1 | 0.7 | 3.7 | -0.8 | i | 1 | 10 | 11 | 0.6 | nt
Cc1nn(Cc2ccc(C(=O)N3CCOCC3)o2)c(C)c1Br | 0.68 | 2.4 | 5.7 | i | -1 | -8 | 1 | 2.2 | 9%
Cc1cc(C(=O)NCCCN2CCOCC2)n(-c2ccccc2)n1 | 0.73 | -0.3 | -0.8 | i | 5 | 12 | 16 | -2.9 | -2%
COn1c(SCC(N)=O)nc2ccccc2c1=O | 0.74 | -1.9 | nt | nt | -1 | nt | nt | nt | -4%
Cc1nn(-c2ccccc2)c(C)c1/C=N/NC(=O)c1ccccc1O | nt | 0.9 | 0.6 | i | 26 | -1 | 4 | -1.7 | 4%
CCCNC(=O)Nc1ccc2c(c1)OC[C@@H](C)N(CCC)C[C@@H](C)[C@@H](OC)CN(C)C2=O | nt | nt | -2.4 | i | nt | 1 | 5 | 1.1 | nt
Cn1cnc(S(=O)(=O)N2C[C@H](O)COC[C@H]3O[C@@H](CC(=O)NC4CCC4)CC[C@@H]32)c1 | nt | nt | -19 | i | nt | 5 | 11 | -5.4 | nt
CCN(CC)C(=O)C1CCC(CNS(=O)(=O)c2cccc3cccnc23)CC1 (stereo not drawn) | 0.76 | -0.1 | 5.4 | i | -30 | 4 | -1 | 2.7 | 3%

Screening results deposited in PubChem by several laboratories.
